Screens deposited in PubChem by National Center for Advancing Translational Sciences (NCATS).
PINK1 modulator: A Quantitative High throughput Screen to Identify Chemical Modulators of PINK1 Expression. AID 624263, 2012. hit rate 0.2% among 410,000. Potency, µM (highest dose often 76.6 µM), without a hit: at the top dose activation (PINK1 increase), hits mostly activators. PINK1 immunofluorescence, high-content cytometry, 24 h; active = well fitted activation curve with a large enough effect; inconclusive = small, poorly fitted or top-dose-only effect; inactive = flat fitted curve, though single readings scatter; cell line not stated here;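 note: potency is the fitted concentration of half-maximal effect; % of control where 0% means no effect; nearly all actives have a fitted effect of over 65% in size; a mitochondrial uncoupler was the plate control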
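Measures PINK1 amount and localization on or inside mitochondria by immunofluorescence. Stable cells get compounds at 5 concentrations for 24 hours before fixation and staining; CCCP controls included.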
D2 ag: Beta-Arrestin HTS for Positive Allosteric Modulators of the Human D2 Dopamine Receptor: Agonists. hit rate 0.084% among 360,000. D(2) dopamine receptor (Homo sapiens), P14416. DiscoveRx PathHunter D2 beta-arrestin, luminescence, 90 min; 100% = 57 uM dopamine signal. activation, % (no concentration beside the values); in the data active = activation above about 40%; inconclusive = about 15% to 40%; inactive = below about 15%; note: compound concentration not given in the record; the text of the record calls up to 30% inactive
Target sequence (P14416 whole entry, looked up): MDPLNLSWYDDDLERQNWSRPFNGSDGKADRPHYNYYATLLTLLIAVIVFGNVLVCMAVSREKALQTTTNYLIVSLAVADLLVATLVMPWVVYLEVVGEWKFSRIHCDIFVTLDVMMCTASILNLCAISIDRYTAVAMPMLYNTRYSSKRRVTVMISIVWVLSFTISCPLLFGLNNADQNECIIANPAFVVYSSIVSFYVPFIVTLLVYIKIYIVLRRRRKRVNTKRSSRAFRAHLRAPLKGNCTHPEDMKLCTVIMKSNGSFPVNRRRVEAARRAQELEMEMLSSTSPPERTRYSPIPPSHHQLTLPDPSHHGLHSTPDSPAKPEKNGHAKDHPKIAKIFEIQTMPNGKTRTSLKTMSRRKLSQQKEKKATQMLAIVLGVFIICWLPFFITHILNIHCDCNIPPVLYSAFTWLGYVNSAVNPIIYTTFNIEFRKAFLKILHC
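Agonist mode: compounds alone added to overnight-plated D2 PathHunter cells for 90 min at 37 C, with 57 uM final dopamine (EC100) defining full response. Beta-arrestin recruitment detected by chemiluminescent reagent, read after 1 h at ambient temperature.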
D2 potentiator: Beta-Arrestin HTS for Positive Allosteric Modulators of the Human D2 Dopamine Receptor: Potentiators | D(2) dopamine receptor (Homo sapiens), P14416 | DiscoveRx D2 beta-arrestin cells, luminescence, 90 min; 100% = 57 uM dopamine signal | potentiation, % (test concentration not listed) | hit rate 0.23% among 360,000; active = potentiation of 50% or more; inconclusive = 30% to 50%; inactive = 30% or less;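 note: compound concentration not given in the record; tested on top of an EC20 dose of dopamine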
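D2 cells co-treated with compound plus 50 nM dopamine (EC20) for 90 min at 37 deg C to detect potentiation. Beta-arrestin recruitment was read as enzyme-fragment luminescence after 1 h at ambient temperature. Full response was set by 57 uM dopamine.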
TRPML1 ag: qHTS for Agonists of the Human Mucolipin Transient Receptor Potential 1 (TRPML1); Mucolipin-1 (Homo sapiens), Q9GZU1; TRPML1-expressing cells, Ca2+ dye fluorescence, FDSS; host cell line not named in the record; reference of the full effect not given here; activation, % (no concentration beside the values); hit rate 0.12% among 410,000; AID 624414, 2012; in the data active = activation above about 50%; inconclusive = about 30% to 50%; inactive = below about 30%; note: 0% is about no effect; the text of the record puts the active cut at 80%
Target sequence (Q9GZU1 whole entry, looked up): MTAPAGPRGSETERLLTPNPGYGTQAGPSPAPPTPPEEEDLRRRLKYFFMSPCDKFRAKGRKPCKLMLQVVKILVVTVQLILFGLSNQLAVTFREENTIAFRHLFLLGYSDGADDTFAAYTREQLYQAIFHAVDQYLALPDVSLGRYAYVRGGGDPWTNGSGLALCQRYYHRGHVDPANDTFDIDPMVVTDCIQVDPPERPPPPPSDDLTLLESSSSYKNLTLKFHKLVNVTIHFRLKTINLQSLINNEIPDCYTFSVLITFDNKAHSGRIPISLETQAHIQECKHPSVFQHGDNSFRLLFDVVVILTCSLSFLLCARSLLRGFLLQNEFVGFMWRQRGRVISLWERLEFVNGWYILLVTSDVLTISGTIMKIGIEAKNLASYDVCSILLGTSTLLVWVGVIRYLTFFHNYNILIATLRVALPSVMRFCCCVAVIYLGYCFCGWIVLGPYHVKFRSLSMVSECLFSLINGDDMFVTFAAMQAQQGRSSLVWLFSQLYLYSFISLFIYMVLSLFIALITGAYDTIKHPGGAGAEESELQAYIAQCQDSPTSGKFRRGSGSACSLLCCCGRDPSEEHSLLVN
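In this qHTS format, compounds were pin-transferred onto Ca8-dye-loaded TRPML1-DL cells induced with Tet overnight, and intracellular Ca2+ fluorescence was recorded kinetically for 110 s after a 10 s baseline. A subsequent 4uM final 54-4 (EC80) addition followed by a second 110 s read served as the antagonist phase.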
Six1-Eya2 blk: qHTS Assay for Inhibitors of the Six1/Eya2 Interaction; Homeobox protein SIX1 (Homo sapiens) + Protein phosphatase EYA2 (Homo sapiens), …; AlphaScreen GST-Six1/His-Eya2 binding, biochemical; active compounds read low; control for the full effect not named in the record; activity change, % (no concentration beside the values); hit rate 0.56% among 360,000; in the data active = activity change below about -65%; inconclusive = about -30% to -65%; inactive = above about -30%; note: % is set by controls: 0 for no effect and ±100 for the full control effect
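AlphaScreen luminescence read after one hour at 37 °C in darkness. Pin-transferred compounds met GST-Six1 and His-Eya2 protein (5X stock 250 nM/500 nM) plus glutathione donor and Ni-chelate acceptor beads (5X, 50 ug/mL).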
CtBP-E1A blk: qHTS Assay for Inhibitors of the CtBP/E1A Interaction | CtBP / adenovirus E1A interaction (AlphaScreen) | AlphaScreen GST-E1A/His-CtBP binding, 1536-well; active compounds read low; control for the full effect not named in the record | activity change, % (no concentration beside the values) | hit rate 0.49% among 340,000 | AID 651724, 2012; in the data active means activity change below about -65%; inconclusive means about -30% to -65%; inactive means above about -30%; note: % is set by controls: 0 for no effect and ±100 for the full control effect
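Steps: dispense buffer (Tris pH 8.0, NaCl 300 mM, TCEP 1 mM, BSA, Tween 20); add 5X protein mix (GST-E1A, His-CtBP, 125 nM each); pin 23 nL compound; 2 h at 37 °C, dark; add 5X beads (50 ug/mL); 1 h; read.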
* = called active by the depositor; ? = inconclusive; . = not tested or not shown; & = joins results of further samples; [ ] = another dose, or the depositor's remark. This is a random part of the collection, and some 1.3% of all compounds hit somewhere here.

The line under a structure holds: PINK1 modulator	D2 ag	D2 potentiator	TRPML1 ag	Six1-Eya2 blk	CtBP-E1A blk
CCOC(=O)CSc1nc2cc(C)ccc2cc1C#N
    5.9%	-1.8	-1	5.4	13	-1
Cc1cc(C(=O)Cn2nnc3ccccc3c2=O)c(C)n1-c1c(C)n(C)n(-c2ccccc2)c1=O
    -1.9%[38.3 µM]	1.4	-11	-0.1	-6	15
Cc1c(C(=O)NCC2CCCO2)oc2ccc(Br)cc12 (configuration not stated)
    5.1%	-0.1	1	-0.3	-4	16
COc1ccccc1NC(=O)CN1CCC(n2nnc3cc(F)ccc32)CC1
    -0.9%	-3.0	-31	-0.1	-2	2
CCn1c(CNC(=O)COC)nc2ccccc21
    -0.3%	-0.8	-4	-0.1	-2	-1
COC(=O)CSc1nnc(-c2cccnc2)o1
    -2.7%	-0.8	-2	2.3	2	-12
COc1ccc(-c2ccccc2)cc1NC(=O)[C@@H]1O[C@H](CO)[C@H](O)[C@H](O)[C@H]1O
    0.8%	-4.5	-16	0.5	6	-24
N/C(=N\OC(=O)c1ccccc1F)c1ccc([N+](=O)[O-])cc1
    0.4%	?	15	-0.6	0	7
CS(=O)(=O)Nc1ccc(C(=O)Nc2cccc([N+](=O)[O-])c2)cc1
    -0.8%	-7.3	-7	0.1	4	-8
O=C(CN1c2cccc3cccc(c23)S1(=O)=O)NCc1ccccc1Cl
    -0.2%	-2.6	-18	-0.1	5	7
CCC(/C=C1\Sc2ccc(OC)cc2N1CCO)=C\c1sc2ccc(OC)cc2[n+]1CCO
    14µM*	-7.3	-42	0.8	?	?
COc1ccc(S(=O)(=O)N(C)C[C@H]2Oc3c(NC(=O)CCC(F)(F)F)cccc3C(=O)N([C@H](C)CO)C[C@@H]2C)cc1
    0.5%	-0.4	-6	-0.6	0	3
Cc1ccc(S(=O)(=O)N2CCOC2CNC(=O)C(=O)NCCc2ccccc2)cc1 (configuration not stated)
    8.9%	5.7	-6	.	20	0
CC(C)Oc1ccc(C(=O)NC2(C(F)(F)F)N=C3SCCN3C2=O)cc1 (configuration not stated)
    -3.1%	-1.1	9	-0.3	3	8
O=C(Cc1ccccc1C(=O)O)Nc1cccc2ccccc12
    2.4%	-0.4	4	1.1	2	-5
O=C(Nc1cccc2ccccc12)c1csc(COCCO)n1
    -0.4%	6.0	-11	0.5	5	5
COc1ccc(-n2nnc3c(=O)n(CC(=O)N4CCCc5ccccc54)cnc32)cc1
    15%	-3.8	-9	-0.2	-1	2
Cc1cc(C(F)(F)F)nn1CC(=O)Nc1cccnc1
    1.7%	-2.7	12	-0.3	0	10
O=C(Nc1ccc(Br)cc1)c1ccc(Br)c(S(=O)(=O)Nc2cccnc2)c1
    -5.0%	-1.6	6	0.0	?	-66*
Cc1cccc(C)c1NC(=O)C(c1cccs1)N(Cc1ccco1)C(=O)Cn1nnc2ccccc21 (configuration not stated)
    2.8%	-11	13	0.8	2	-4
NC(=O)c1cc(NC(=O)CCCc2nc3ccccc3s2)cc(C(N)=O)c1
    -1.4%	-3.4	0	-0.6	-12	-13
CCN(CC)c1ccc(C(=O)NNC(=O)CNC(=O)c2ccco2)cc1
    -1.7%	-0.4	2	-0.8	-2	1
Cc1ccccc1NC(=O)c1ccc(NS(=O)(=O)c2cc(C(C)(C)C)cc(C)c2C)cc1
    -0.6%	-7.3	-10	1.7	0	-8
C/C(CC(=O)Nc1ccc(Cl)cc1Cl)=N\NC(=O)C(=O)N1CCCC1
    4.0%	1.6	15	-0.1	0	-3
CCOc1ccc(S(=O)(=O)NCCC(=O)N(CC)CC(=O)Nc2c(F)cccc2F)cc1
    -0.3%	-0.4	-2	0.0	9	3
CCOc1ccc(/C=C(\C(=O)O)c2ccc(S(=O)(=O)N3CCOCC3)s2)cc1OC
    -0.4%	-0.7	-3	-0.5	-19	-2
Cc1cccc(NC(=O)c2cc(-c3cc(C)c(C)cc3O)n[nH]2)c1
    -0.8%	1.1	-1	-1.3	3	8
Cc1cc(C(=O)OCC(=O)Nc2c(Cl)cccc2C(F)(F)F)c(C)o1
    6.7%	-0.7	10	-0.3	7	3
Cc1cccc(C(=O)OCc2cc3ccccc3[nH]c2=O)c1
    5.5%	-0.6	6	3.2	1	1
Cc1ccc(C)c(C(=O)Cn2ncc(Cl)c(Cl)c2=O)c1
    -2.5%	-6.0	4	-1.5	-1	0
CCOc1ccc(-c2cc(C(=O)NCCCn3ccnc3)c3ccccc3n2)cc1
    2.2%	4.3	2	0.6	-1	0
CC(C)C(NC(=O)C12CC3CC(CC(C3)C1)C2)C(=O)N/N=C/C1=C(N2CCOCC2)C(=C\c2ccc([N+](=O)[O-])cc2)/CC1 (configuration not stated)
    1.1%	0.3	1	0.1	-3	-18
CCc1nnc(NC(=O)C2CCN(c3ncnc4sc(C)c(C)c34)CC2)s1
    5.2%	12	0	1.6	1	1
CN(CC(=O)Nc1c(Cl)cccc1Cl)C(=O)c1ccc2ccccc2n1
    -4.2%	-5.2	0	0.9	5	-7
O=C(CSc1nnc2n(C3CCCC3)c(=O)c3ccccc3n12)N1CCCCCC1
    -0.1%[38.3 µM]	0.4	-6	2.2	4	6
C[C@@H]1CCCCCCCCC(=O)OCCN(C(=O)OC(C)(C)C)[C@H](C)CCCCCCCCC(=O)OCCN(C(=O)OC(C)(C)C)[C@H](C)CCCCCCCCC(=O)OCCN(C(=O)OC(C)(C)C)[C@H](C)CCCCCCCCC(=O)OCCN1C(=O)OC(C)(C)C
    1.9%	-1.3	-5	0.4	-7	-20
CCN1CCN(c2ncnc3c2nnn3Cc2ccccc2)CC1
    1.3%	0.1	-38	0.0	-1	0
CCN1CCCC1CNC(=O)COc1cc(=O)n(C)c2ccccc12 (configuration not stated)
    38%[38.3 µM]	-3.3	-10	-0.1	6	-2
CCN(CC)c1ccc(C=Nc2ccc(OC)c(S(=O)(=O)N3CCOCC3)c2)c(O)c1
    1.7%	-1.0	5	-0.7	8	.
Cc1ccc(S(=O)(=O)NC2CCCCCC2)cc1
    10%	-0.4	3	2.6	9	11
COc1ccc(-c2cccc(C3CC=CC4C3C(=O)N(Cc3ccccc3)C4c3ccc(C(F)(F)F)cc3)c2)cc1 (configuration not stated)
    2.1%	-0.7	-4	0.2&0.5	0	-1
CCOc1ccccc1OCCOc1ccccc1CC
    9.9%	-1.9	-6	0.6	101	56
CN(c1ccccc1)S(=O)(=O)c1cccc(NC(=O)CN2CCc3ccccc3C2)c1
    2.9%	?	16	1.2	-1	10
COc1cc(OC)c(OC)cc1/C=C1\Oc2cc(OCC(=O)N3Cc4ccccc4C[C@H]3C(=O)O)ccc2C1=O
    -0.1%	4.9	8	15	-21	0
O=C(O)c1ccccc1Cc1ccc2c(c1)CCCC2
    -1.7%	-3.3	-3	1.7	-1	5

Rewritten tab-delimited: entries from further up.
smiles	PINK1 modulator	D2 ag	D2 potentiator	TRPML1 ag	Six1-Eya2 blk	CtBP-E1A blk
Cc1cccc(NC(=O)c2cc(-c3cc(C)c(C)cc3O)n[nH]2)c1	-0.8%	1.1	-1	-1.3	3	8
Cc1cc(C(=O)OCC(=O)Nc2c(Cl)cccc2C(F)(F)F)c(C)o1	6.7%	-0.7	10	-0.3	7	3
Cc1cccc(C(=O)OCc2cc3ccccc3[nH]c2=O)c1	5.5%	-0.6	6	3.2	1	1
Cc1ccc(C)c(C(=O)Cn2ncc(Cl)c(Cl)c2=O)c1	-2.5%	-6.0	4	-1.5	-1	0
CCOc1ccc(-c2cc(C(=O)NCCCn3ccnc3)c3ccccc3n2)cc1	2.2%	4.3	2	0.6	-1	0

(continued)
The line under a structure holds: PINK1 modulator	D2 ag	D2 potentiator	TRPML1 ag	Six1-Eya2 blk	CtBP-E1A blk
CC(C)C(=O)N1CCC1(C)C(=O)NCc1ccc(F)cc1Cl (configuration not stated)
    1.5%	-3.0	-2	-0.4	-8	-4
CCN(Cc1ccccc1)C1CCN(Cc2ccccc2)CC1
    0.3%	-5.4	-4	-0.2	-5	5
Cc1cccc(C)c1NS(=O)(=O)c1cc2c3c(c1)CC(=O)N3CCC2
    0.7%	-1.4	-5	-0.8	3	-1
COc1cc2c(-c3ccc4cc[nH]c4c3)c(-c3ccsc3)oc(=O)c2cc1OC
    0.2%	-1.9	0	-0.2	-7	-6
Cc1ccc(S(=O)(=O)NCC(c2ccc3c(c2)OCO3)N2CCN(c3ccccc3)CC2)cc1 (configuration not stated)
    0.5%	?	9	0.2	0	3
O=C(O)c1ccc(NC2=C/C(=N/S(=O)(=O)c3cccs3)c3ccccc3C2=O)cc1
    -1.0%	0.7	-25	-0.6	?	?
CC(=O)Nc1cccc(NC(=S)Nc2ccc(F)c(Cl)c2)c1
    ?	6.4	-6	0.6	8	.
CCOc1ccc(N(C)S(=O)(=O)c2ccc(C)c(C(=O)OCC(=O)c3c[nH]c4ccccc34)c2)cc1
    1.1%	-3.3	-12	-0.1	3	0
Cc1cc(N2C(=O)C(=O)/C(=C(/O)c3ccccc3)C2c2cccc(Br)c2)no1 (configuration not stated)
    0.5%	-4.0	-1	1.9	3	3
CSCCCNC(=S)Nc1ccc(N2CCOCC2)cc1
    4.5%	-4.0	-6	0.2	3	0
COc1cccc(CNn2cn[nH]c2=S)c1OCc1ccccc1
    0.4%	-4.9	-6	0.7	2	-1
N#C/C(C(=O)Oc1ccccc1)=C1\C=CC=CN1
    0.7%	-4.1	-8	-0.2	4	9
